# ClpP mod: qHTS Assay for Activators of ClpP; ATP-dependent Clp protease proteolytic subunit (Bacillus subtilis (strain 168)), P80244; purified B. subtilis ClpP, FRET peptide cleavage, 20 min; Potency, µM (doses to about 57.5 µM), for the others: at the top dose activity change, negative = active; 1.9% of 340,000 active; AID 651965, 2013; active = well fitted falling curve with a large enough effect; inconclusive = small, poorly fitted or top-dose-only effect; inactive = no such curve, though single readings can be large or run the other way; note: potency is the fitted concentration of half-maximal effect; the source files actives as falling curves though it sought activators and does not explain the sign; nearly all actives have a fitted effect of over 65% in size; many hits overshoot -100%
# Target sequence (P80244 whole entry, looked up): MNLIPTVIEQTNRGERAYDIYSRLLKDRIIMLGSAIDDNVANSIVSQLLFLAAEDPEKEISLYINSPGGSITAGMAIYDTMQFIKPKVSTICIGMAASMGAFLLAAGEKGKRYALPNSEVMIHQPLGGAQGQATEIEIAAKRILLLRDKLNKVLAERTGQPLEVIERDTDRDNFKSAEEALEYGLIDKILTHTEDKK
#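 FRET quenching reversal measured ClpP activation: 10 microg/mL B. subtilis ClpP at pH 8 with the FRET-FV decapeptide, read at 430 nm after 320 nm excitation. The 20-min minus 0-min signal was scaled between DMSO/no-enzyme wells and ADEP (5.8 microM final).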
# D2 ag: agonists of human D2 dopamine receptor (beta-arrestin) | P14416 | DiscoveRx PathHunter D2 beta-arrestin, luminescence, 90 min; 100% = 57 uM dopamine signal | activation, % (concentration not given with the values) | 0.084% of 360,000 active | AID 624465; in the data active = activation above about 40%; inconclusive = about 15% to 40%; inactive = below about 15%; note: compound concentration not given in the record; the text of the record calls up to 30% inactive
# Target sequence (P14416 whole entry, looked up): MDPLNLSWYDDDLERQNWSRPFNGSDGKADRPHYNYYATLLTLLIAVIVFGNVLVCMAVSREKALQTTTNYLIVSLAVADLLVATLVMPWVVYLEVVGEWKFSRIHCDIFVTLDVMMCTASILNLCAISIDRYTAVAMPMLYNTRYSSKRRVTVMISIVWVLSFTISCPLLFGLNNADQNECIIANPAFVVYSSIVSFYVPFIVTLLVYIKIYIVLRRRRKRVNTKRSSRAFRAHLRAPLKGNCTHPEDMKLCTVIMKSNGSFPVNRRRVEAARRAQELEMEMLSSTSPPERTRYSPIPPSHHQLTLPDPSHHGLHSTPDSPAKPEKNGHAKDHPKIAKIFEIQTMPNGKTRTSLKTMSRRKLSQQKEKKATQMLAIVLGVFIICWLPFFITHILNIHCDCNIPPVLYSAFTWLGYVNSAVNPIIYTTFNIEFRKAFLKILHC
#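 Agonist mode: compounds alone added to overnight-plated D2 PathHunter cells for 90 min at 37 C, with 57 uM final dopamine (EC100) defining full response. Beta-arrestin recruitment detected by chemiluminescent reagent, read after 1 h at ambient temperature.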
# Menin-MLL FL inh: menin-MLL binding inhibition, fluorescein peptide; AID 1766; 290,000 tested, under 10 active; FP activity change, % at 61.4 µM; Fluorescence polarization, fluorescein-MLL peptide displacement from menin; inconclusive = falling polarisation curve, or a change in total fluorescence; inactive = total fluorescence flat and polarisation flat or rising; no compound was filed as active; the % refers to the polarisation; negative = inhibition;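 note: % of control where 0% means no effect; inhibitors lower the polarisation; unlabelled MLL peptide was the positive control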
# gsp agonist: activates gsp, the McCune-Albright syndrome mutation; gsp mutant cells, cAMP HTRF, 30 min; control for the full effect not named in the record; Potency, µM (titrated, usually from 76.9 µM), without a hit: top-dose activation (cAMP increase), usual class: activators; 0.13% of 340,000 active; AID 624287; active = well fitted activation curve with a large enough effect; inconclusive = small, poorly fitted or top-dose-only effect, or another doubt; inactive = no such curve, though single readings can be large or run the other way; cell line not stated here;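 note: phosphodiesterase inhibitor Ro 20-1724 added with compounds to block cAMP breakdown; potency is the fitted concentration of half-maximal effect; nearly all actives have a fitted effect of over 60% in size; about a fifth of the inactives were tested at one dose only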
#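 Cells in DMEM/10% FBS with G418 were pretreated with compounds in DMSO plus […] (300 uM stock) for 30 min at 37C. cAMP was measured by HTRF (cAMP-d2 plus anti-cAMP antibody-K) after 30 min at room temperature.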
# gsp antag: antagonizes gsp, the McCune-Albright syndrome mutation; AID 624288; 0.4% of 340,000 active; gsp-mutant cells, cAMP HTRF, 30 min; control for the full effect not named in the record; Potency, µM (highest dose often 76.9 µM), for inactives: top-dose activity change, negative = inhibition, usual class: inhibitors; active = falling curve of any shape with a large fitted effect; inconclusive = falling curve, mostly with a smaller effect; inactive = flat or rising curve; cell line not stated here;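 note: intracellular cAMP measured with PDE inhibitor Ro 20-1724 present during compound exposure; potency is the fitted concentration of half-maximal effect; % is set by controls: 0 for no effect and ±100 for the full control effect; nearly all actives have a fitted effect of over 65% in size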
#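 Cells in G418 medium, seeded 16-24 h, 37C; buffer exchange to DPBS + 1 mM CaCl2, 0.5 mM MgCl2, 0.05% BSA; cpds in DMSO + […] (300 uM stock), 30 min 37C; HTRF cAMP detection.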
# PINK1 modulator: modulators of PINK1 expression | PINK1 immunofluorescence, high-content cytometry, 24 h | Potency, µM (doses to about 76.6 µM), for the others: at the top dose activation (PINK1 increase), most hits filed as activators | 0.2% of 410,000 active | AID 624263; active = well fitted activation curve with a large enough effect; inconclusive = small, poorly fitted or top-dose-only effect; inactive = flat fitted curve, though single readings scatter; cell line not stated here;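 note: potency is the fitted concentration of half-maximal effect; % of control where 0% means no effect; nearly all actives have a fitted effect of over 65% in size; a mitochondrial uncoupler was the plate control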
#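 A stable cell line was treated with compounds at 5 concentrations for 24 hours, with CCCP as control. PINK1 levels and mitochondrial localization were measured by immunofluorescence with mitochondrial, cell and nuclear markers after fixation, read by laser-scanning cytometry.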
# Sfp PPTase inh: Sfp phosphopantetheinyl transferase inhibition; Biochemical Sfp PPTase activity, qHTS; 3.5% of 310,000 active; Q9F4F7; AID 1490; Potency, µM, inactives show max response, negative = inhibition, actives largely listed as inhibitors; active = well fitted inhibition curve with a large enough effect; inconclusive = small, poorly fitted or top-dose-only effect, or another doubt; inactive = no such curve, though single readings can be large or run the other way;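 note: the enzyme is Sfp with the accession as filed and its product quenches rhodamine fluorescence; potency is the fitted concentration of half-maximal effect; 0% = enzyme reaction without inhibitor and -100% = no enzyme wells; top concentration of the series not given in the record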
#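 Step 1, compound plus 15 nM Sfp-PPTase, 15 min, room temperature. Step 2, add rhodamine-CoA (5 uM) and BHQ-2-YbbR (12.5 uM). Step 3, read 525/598 nm fluorescence at 0 and 30 min.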
# * hit, by the source's call; ? = inconclusive; . = no result given; & = joins results of further samples; [ ] = remark or other dose.
SMILES,ClpP mod,D2 ag,Menin-MLL FL inh,gsp agonist,gsp antag,PINK1 modulator,Sfp PPTase inh
Fc1ccc(NC(=S)N2CCSC2c2cccs2)cc1 (configuration not stated),0.9%,-6.7,0.2,0.1%[15.4 µM],-6.6%,3.7%,-13.8%
CN(C)c1cccc(NC(=O)Cc2ccc(F)cc2)c1,-1.1%,-0.9,-0.9,-43.4%[inhibitor],-10.3%,1.1%[38.3 µM],-12.7%
CCCS(=O)(=O)NC(=O)C1(C)CCCN(C(=O)c2sccc2C)C1 (configuration not stated),0.5%,-4.7,.,.,.,0.0%,.
Nc1nc2c(c3c1c(=O)oc1ccccc13)CCCCC2,-27.7%,-4.2,6.6,26.8%,2.0%,4.7%,15.4%
CC1CCc2nc3ccccc3c(C(=O)OCC(=O)N3CCc4ccccc43)c2C1 (configuration not stated),?,-3.0,10.3,5.2%,-14.1%,9.8%,?
COc1c(Cl)cc(C(=O)Nc2ccc(Cl)cn2)cc1Cl,3.3%,-3.7,4.6,8.8%,-0.4%,6.8%,-1.0%
Cc1c(C(=O)Oc2ccc(Cl)cc2)n(C)oc1=O,.,0.4,-3.8,17.3%,7.0%,3.8%,-3.6%
COc1ccccc1-n1ccnc(SCC(=O)NC2CCCCC2)c1=O,.,0.2,.,-19.3%[15.4 µM],-3.7%,-1.3%,.
O=C(CNc1cccc(S(=O)(=O)N2CCCCC2)c1)Nc1cccc(F)c1,-5.0%,-3.7,.,-4.8%[15.4 µM],?,0.4%,.
CC/C(=N\NC(=O)c1c[nH]c2ccccc12)c1cccs1,-5.7%,-1.9,0.1,?,-15.5%,5.3%,?
O=C(CCN1CCN(CC(=O)Nc2ccccc2F)CC1)Nc1ccccc1F,-2.0%,-2.9,0.1,-27.5%,-2.5%[15.4 µM],0.5%,-17.4%
CC(C)[C@H](NC(=O)[C@@H]1CSC2c3ccccc3C(=O)N21)C(=O)NCc1ccncc1 (some centres not stated),-0.2%,-6.7,-5.3,-90.9%[inhibitor],6.5%,-0.8%,11.9%
Cc1cc(C(=O)COC(=O)c2cnccn2)c(C)n1-c1ccc(Br)cc1,.,2.9,.,9.6%,-7.0%,-1.2%,.
Cc1nn(CC(=O)NCc2ccccn2)c(C)c1[N+](=O)[O-],.,-0.5,-1.4,-5.9%[15.4 µM],5.0%,-0.1%,6.7%
O=C(C1CCCN(S(=O)(=O)c2ccc(Br)cc2)C1)N1CCN(Cc2ccccc2)CC1 (configuration not stated),-0.5%,3.9,.,6.4%,-16.8%,-1.2%,-2.5%
CCOc1ccc(NC2=C(Cl)C(=O)N(C3CCCCC3)C2=O)cc1,-0.8%,-3.8,-1.6,7.6%[15.4 µM],13.8%,7.2%,18.6%
Cc1cc(OC2CCCCC2)nc(-c2ccccc2O)n1,0.5%,-3.9,1.9,-3.3%,-4.9%,12.4%,-25.2%
CCOC(=O)/C(C)=N/NC(=O)c1ccc([N+](=O)[O-])cc1,.,1.7,-1.6,2.5%[15.4 µM],6.8%,2.3%,-3.3%
O=C(COc1ccc(-c2ccccc2)cc1)NNC(=O)NC1CCCCC1,.,0.3,2.8,-11.0%[15.4 µM],-12.6%,4.5%,13.2%
Cc1ccc(OCCCSc2ncccn2)cc1C,-0.2%,2.0,1.3,-21.1%,-17.8%,0.2%,16.9%

# Seven neighbouring records already listed, for reference:
SMILES,ClpP mod,D2 ag,Menin-MLL FL inh,gsp agonist,gsp antag,PINK1 modulator,Sfp PPTase inh
Cc1nn(CC(=O)NCc2ccccn2)c(C)c1[N+](=O)[O-],.,-0.5,-1.4,-5.9%[15.4 µM],5.0%,-0.1%,6.7%
O=C(C1CCCN(S(=O)(=O)c2ccc(Br)cc2)C1)N1CCN(Cc2ccccc2)CC1 (configuration not stated),-0.5%,3.9,.,6.4%,-16.8%,-1.2%,-2.5%
CCOc1ccc(NC2=C(Cl)C(=O)N(C3CCCCC3)C2=O)cc1,-0.8%,-3.8,-1.6,7.6%[15.4 µM],13.8%,7.2%,18.6%
Cc1cc(OC2CCCCC2)nc(-c2ccccc2O)n1,0.5%,-3.9,1.9,-3.3%,-4.9%,12.4%,-25.2%
CCOC(=O)/C(C)=N/NC(=O)c1ccc([N+](=O)[O-])cc1,.,1.7,-1.6,2.5%[15.4 µM],6.8%,2.3%,-3.3%
O=C(COc1ccc(-c2ccccc2)cc1)NNC(=O)NC1CCCCC1,.,0.3,2.8,-11.0%[15.4 µM],-12.6%,4.5%,13.2%
Cc1ccc(OCCCSc2ncccn2)cc1C,-0.2%,2.0,1.3,-21.1%,-17.8%,0.2%,16.9%

# (continued)
SMILES,ClpP mod,D2 ag,Menin-MLL FL inh,gsp agonist,gsp antag,PINK1 modulator,Sfp PPTase inh
COc1cccc(CN2CC(C(=O)NCc3ncc(C)[nH]3)CCC2=O)c1 (configuration not stated),-1.3%,-2.5,.,16.6%,5.6%,-2.0%,10.6%
COc1cccc(OC)c1C(=O)Nc1ccc2c(c1)n(C)c(=O)n2C,2.5%,0.0,4.3,21.5%,14.4%,0.6%,6.6%
O=C(CN1CCN(c2ccc(F)cc2)CC1)Nc1cccnc1Cl,-0.1%,-4.4,-2.9,24.1%,7.8%,-1.7%,2.1%
CCOc1ccc(C(=O)OCC(=O)NCCCc2ccccc2)cc1,-1.1%,-2.8,0.7,-38.4%,16.3%,1.9%,-5.6%
CCOc1ccc(N2C(=O)CSC2=NC#N)cc1,-3.8%,-2.2,.,-30.2%[inhibitor],6.3%,3.1%,.
Cc1ccc(-n2ncc(-c3nnc(SCC(=O)NC4CCCC4)o3)c2N)cc1C,-0.2%,3.0,-3.8,3.7%[15.4 µM],-8.1%,0.1%,11.1%
COc1ccccc1N1CCN(C(=O)CCCNC(=O)Cn2cnc3sc(C)c(C)c3c2=O)CC1,0.3%,-1.1,-1.6,-8.5%[15.4 µM],-1.2%,-0.2%,13.2%
CC(C)N(C)Cc1nnnn1CC(=O)NCc1cc(F)cc(C(F)(F)F)c1,-2.0%,-3.0,-2.4,27.4%,4.7%,0.0%,14.3%
Nc1cccc(S(=O)(=O)c2ccc(N)c(N)c2)c1,.,-0.8,-3.4,1.2%[15.4 µM],0.8%,0.1%,16.1%
O=C(COC(=O)Cn1cnc2ccccc21)Nc1ccc(Br)cc1,-7.0%,-2.1,.,25.4%,.,0.0%,.
O=S1(=O)CC(N2CCC(Cc3ccccc3)CC2)CN1Cc1ccc(F)cc1 (configuration not stated),1.3%,-3.7,.,.,.,-0.6%,.
O=C(CNC(=O)c1ccccc1F)OC1CCOC1=O (configuration not stated),1.3%,0.1,.,4.8%,-20.9%,5.3%,.
CN(C)CCCNC(=O)c1ccc(Oc2ccccc2)cc1,.,-6.0,-0.6,-12.6%,13.0%,-1.3%,17.3%
CC1=C(C#N)C(NC(=O)c2ccc(Cl)cc2)(C(F)(F)F)C(=O)N1 (configuration not stated),2.8%,-1.1,0.1,-7.9%[15.4 µM],13.5%,1.3%,20.7%
COc1ccccc1NC(=S)N(Cc1ccc(C(=O)O)cc1)Cc1ccc(OC)c(OC)c1,0.4%,-0.5,1.1,0.3%,-16.8%,-0.9%,-29.0%
CCN(CC)CCNC(=O)c1cn(CC)c2ccc(S(=O)(=O)N3CCc4ccccc4C3)cc2c1=O,-2.0%&-5.2%,5.0,-7.3,-36.3%[inhibitor],11.6%,2.2%&0.3%,11.9%
CC(=O)Nc1c(S(=O)(=O)c2ccccc2)c2nc3ccccc3nc2n1Cc1ccccc1,15.8µM*,-2.1,-1.1,13.0%,?,-1.5%,12.3%
Cc1nc2c(C(=O)NCc3ccccc3Cl)c[nH]n2c(=O)c1Cl,-16.5%,-0.5,0.3,-35.8%[inhibitor],?,3.5%[38.3 µM],-7.9%
COc1ccc(C(c2nnnn2Cc2cccs2)N2CCN(c3ccccc3F)CC2)cc1 (configuration not stated),-0.8%,-1.9,5.3,?,-12.8%,0.3%,-9.2%
O=C(COc1ccc([N+](=O)[O-])cc1)Nc1ccc(C(=O)NCc2cccnc2)cc1,-3.8%,-0.1,-0.1,-82.9%[inhibitor],9.8%,.,6.3%
COc1cc(NC(=O)CCNC(=O)N2CC(=O)Nc3ccccc32)cc(OC)c1OC,0.3%,0.1,.,15.9%,.,0.8%,.
N/C(Cc1cccc2ccccc12)=N\OC(=O)c1ccccc1F,-2.2%,?,.,10.4%,6.5%,1.3%,-6.0%
C1=CC2CC1CC2CN1CCN(Cc2ccccc2)CC1 (configuration not stated),-17.1%,-3.8,0.1,12.3%,7.0%,-2.1%,79.4µM*
Cc1ccc(C(NC(=O)c2cccc(S(=O)(=O)N3CCN(C)CC3)c2)c2ccccc2)cc1 (configuration not stated),-2.4%,3.4,.,-19.0%,-6.5%,0.5%,.
CCOc1cccc(/C=C(/C#N)c2nc3ccccc3[nH]2)c1OCC(=O)O,-1.4%,2.3,10.7,-28.9%,2.9%,0.1%,18.2%
CC(C)c1ccc2occ(-c3nn[nH]n3)c(=O)c2c1,.,-3.7,3.7,-3.2%[15.4 µM],-22.4%,4.2%,-15.3%
COC(=O)[C@@H](NC(=O)c1ccc(OC2CCN(Cc3ccccn3)CC2)cc1)C(C)C,-0.4%,-0.6,-5.0,6.9%,-9.6%,-0.3%,17.8%
CCN(CC(=O)NC1CCCCC1)S(=O)(=O)c1ccc(Cl)cc1,-2.8%,1.9,0.0,18.7%,1.4%,9.0%,19.1%
CCOc1ccc(/C=C2/SC(=S)N(n3c(C)ccc3C)C2=O)cc1,0.8%,2.1,1.4,-20.8%,-3.6%,-0.4%,0.5%
N#CCCN(Cc1ccccc1)C(CCc1ccccc1)C(=O)NC1CCCCC1 (configuration not stated),1.5%,3.5,.,.,.,2.3%,.
Cc1ccc(CNc2nc3ccccc3n3cnnc23)cc1,-8.0%&-21.9%,-3.5,2.9,-23.9%,-10.2%,-1.0%&4.1%,13.0%
CCC(=O)c1ccc(N2CCOCC2)c(F)c1,0.4%,-3.1,.,17.2%,3.9%,0.3%,.

# Screening data (PubChem BioAssay)
